Screening data from PubChem.
NPYLR7 agonist: mosquito NPYLR7 agonism; HEK293T NPYLR7/Galpha15, GCaMP6s calcium fluorescence; activation, % at 10 µM; 0.15% of 270,000 active; AID 1259423; in the data active means activation above about 40%;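 further: 0% = vehicle and 100% = reference agonist at the receptor; some compounds past the cut are filed as inactive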
NPYLR7 agonist max-min: recorded beside NPYLR7 agonist, whose call it bears; activation, %; measured here: Max-Min RFU normalised activation; some inactives read as strong as hits;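 span of the calcium signal over five minutes; 0% = vehicle and 100% = native peptide agonist; compound fluorescence can raise it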
* hit, by the source's call; & = joins results of further samples. An excerpt; count on the stated rates, not on these rows.

canonical_smiles,NPYLR7 agonist,NPYLR7 agonist max-min
Cc1ccc(-n2nc(-c3ccccc3)c3c2N(CC(=O)O)C(=O)CSC3c2sccc2C)c(C)c1 (stereo not given),-4.8,-12.2
Cc1ccc(C)c(Cn2cccc(C(=O)Nc3ncc([N+](=O)[O-])s3)c2=O)c1,22.9,18.3
Oc1ccc(C2=CCN(CC(O)c3cc(F)ccc3F)CC2)cc1 (stereo not given),3.4,2.0
Cc1cccc(NC(=O)N2CCN(CCOC(c3ccc(F)cc3)c3ccc(F)cc3)CC2)c1,-2.5,5.0
CCCCn1c(=O)c(C(=O)Nc2ccccc2N)c(O)c2ccccc21,-3.2,-8.3
Cc1nn(-c2ncnc3nc[nH]c23)c2c1C(c1ccncc1)SCC(=O)N2 (stereo not given),1.7,29.1
CON(C)S(=O)(=O)c1ccc(Cn2nc(C(=O)N3CCN(CCO)CC3)c3ccccc32)cc1,18.2,20.4
CC(C)(C)OC(=O)N1C2CCC1C(c1nc(C3CC3)no1)C2 (stereo not given),-0.6,-1.2
Clc1c(CN2CCNCC2)sc2ccccc12,0.6,5.1
CCCCN(C(=O)c1ccccc1)C1=CC2CCC(C1)N2C (stereo not given),-1.8,12.0

Molecules from the list above with sulfur:
canonical_smiles,NPYLR7 agonist,NPYLR7 agonist max-min
Cc1ccc(-n2nc(-c3ccccc3)c3c2N(CC(=O)O)C(=O)CSC3c2sccc2C)c(C)c1 (stereo not given),-4.8,-12.2
Cc1ccc(C)c(Cn2cccc(C(=O)Nc3ncc([N+](=O)[O-])s3)c2=O)c1,22.9,18.3
Cc1nn(-c2ncnc3nc[nH]c23)c2c1C(c1ccncc1)SCC(=O)N2 (stereo not given),1.7,29.1
CON(C)S(=O)(=O)c1ccc(Cn2nc(C(=O)N3CCN(CCO)CC3)c3ccccc32)cc1,18.2,20.4
Clc1c(CN2CCNCC2)sc2ccccc12,0.6,5.1

Following part.
canonical_smiles,NPYLR7 agonist,NPYLR7 agonist max-min
Cc1ccc(-n2c(-c3cccc(F)c3)nc3ccccc3c2=O)cc1,0.4,-4.3
CN(C)[C@@H]1C(=O)C(C(N)=O)C(=O)[C@@]2(O)C(=O)C3=C(O)c4c(O)ccc(Cl)c4[C@@](C)(O)C3C[C@@H]12 (stereo not given in full),0.1,-6.0
N#CC1=C(N)Oc2c(c(=O)oc3ccccc23)C1c1ccc(O)c(O)c1 (stereo not given),-15.6,-22.7
Nc1nonc1NC(=O)COC1CN2CCC1CC2 (stereo not given),-4.5,-7.5
OCC(O)[C@H]1O[C@@H]2O[C@H](C(Cl)(Cl)Cl)O[C@@H]2[C@H]1O (stereo not given in full),-8.8,-10.4
c1csc(-c2ccc(NC3CN4CCC3CC4)cc2)n1 (stereo not given),-26.2,-24.7
Cc1ccnc(CC(C)N(C)C(=O)c2cn(C)c3ccccc23)c1 (stereo not given),-0.9,-7.0
Cc1nc(CNC(C)Cn2cncn2)cs1 (stereo not given),20.9,8.2
COc1ccc(OC)c(C(O)C(C)N)c1 (stereo not given),-3.4&-10.2&-0.4&2.9,-8.7&-14.1&-6.2&-37.4
C/C(=C\c1ccco1)CN(C)C(C)Cc1cc(C)ccn1 (stereo not given),-2.8,5.0

Next structures:
canonical_smiles,NPYLR7 agonist,NPYLR7 agonist max-min
Cc1ccc(OP2(=S)OCCCN2c2ccccc2)cc1 (stereo not given),-6.3,-13.4
O=C(C=Cc1ccccc1)c1ccc(S(=O)(=O)F)cc1,-4.1,-10.5
CCOc1ccccc1-n1c(C(C)N2CCN(C(=O)COc3ccc(Cl)cc3)CC2)nc2ccccc2c1=O (stereo not given),-4.3,-6.1
O=C(c1ccon1)N1C[C@@H](c2cccc(F)c2F)[C@@H]2[C@H]1C1CCN2CC1,5.1,4.4
CC(C)(C)NCC(O)c1ccccc1Cl (stereo not given),-11.7&-2.6&2.8,-18.6&-8.9&-31.5
COc1ccc(C=C(C#N)C#N)c(OC)c1,1.5,-0.5
Fc1cccc([C@@H]2CN(CCCn3cnnn3)[C@@H]3C4CCN(CC4)[C@@H]32)c1F,1.3,-5.0
CC(=NNP(=O)(N(C)C)N(C)C)c1ccccc1,3.0,1.2
COCCNC(=O)c1nn(Cc2ccc(S(=O)(=O)N3CCCc4ccccc43)cc2)c2ccccc12,-3.0,1.1
O=C(COc1ccc(Cl)cc1)N1CCN(C(c2ccccc2)c2ccc(Br)cc2)CC1 (stereo not given),-3.9,6.1

Other compounds
canonical_smiles,NPYLR7 agonist,NPYLR7 agonist max-min
CN(C)C(CNC(=O)Nc1cccnc1Cl)Cc1ccccc1 (stereo not given),-2.4,-3.3
COc1ncc(CN2CC[C@@]3(O)CCCC[C@H]3C2)cn1,2.9,3.4
COc1cccc2ccc(CN3C[C@H]4C[C@H](O)[C@H](O)C[C@H]4C3)nc12,9.6,7.0
O=C(CCC(F)(F)F)N1CCC2(CCNCC2)CC1,3.2,7.8
Cc1csc(NS(=O)(=O)c2ccc(C#N)c(C(F)(F)F)c2)n1,4.5,1.8
Cc1ccnc(CC(C)N(C)Cc2cc(Cn3cncn3)c(C)cc2C)c1 (stereo not given),-0.5&-0.1,-1.1&-1.6
C=C(C)C1CNC(C(=O)O)C1CC(=O)O (stereo not given),-7.7,-14.9
CCCN1CCC[C@@H](c2cccc(C#N)c2)C1,-0.5,-24.7
CCOC(=O)CCCC(=O)Nc1ccc2[nH]cc(CCN3CCc4ccccc4C3)c2c1,0.5,-4.8
O=C(c1ccc2c(c1)OCO2)C1CCCN(Cc2c(F)cccc2Cl)C1 (stereo not given),15.7,13.3

More records.
canonical_smiles,NPYLR7 agonist,NPYLR7 agonist max-min
CNc1ccnc(NCCC23CCCN2CCC3)n1,-8.6,-14.3
CC12CN3CN(C1)CC(C)(C3)C2=O,0.2,7.0
CCN(CC)P1(=S)c2c(C)nn(CCC#N)c2N=C(c2ccc(F)cc2)N1C (stereo not given),-6.1,-11.4
N#CC1C(=N)Oc2c(c(=O)oc3ccccc23)C1c1ccc(OC(=O)N2CCOCC2)cc1 (stereo not given),-3.6,-10.0
CCN(CC)C(=O)c1ccc(NC(=O)c2cc(Br)ccc2F)cc1Cl,1.1,-0.6
Cn1c(O)c(C(c2ccccn2)c2c(O)n(C)c(=S)n(C)c2=O)c(=O)n(C)c1=S,-7.4,-6.5
CCCN1C(=O)C2(Cc3cc([N+](=O)[O-])ccc3N3CCCCC32)C(=O)NC1=S (stereo not given),22.0,6.7
CC(=O)Nc1ccc(S(=O)(=O)N2CCN(CCOC(c3ccccc3)c3cccc(C(F)(F)F)c3)CC2)cc1 (stereo not given),-3.6,4.7
CN(Cc1ccccc1)C(=O)c1ccc(Cn2nc(C(=O)N3CCN(CCO)CC3)c3ccccc32)cc1,10.7,16.4
CCCN1CCC[C@@H]2Cc3[nH]ncc3C[C@H]21,15.9&1.2&1.2,-0.3&-2.6&-26.7

Further entries follow.
canonical_smiles,NPYLR7 agonist,NPYLR7 agonist max-min
O=S(=O)(c1ccc(Cl)cc1Cl)N1CCN(CCOC(c2ccccc2)c2ccc(F)c(F)c2)CC1 (stereo not given),7.0,6.5
NCCc1c[nH]c2ccc(OCCO)cc12,-1.8,6.6
C[C@]12CCC3C(CC[C@H]4C[C@@H](Cl)CC[C@]34C)C1CCC2=O (stereo not given in full),-8.5,-13.9
O=[N+]([O-])c1cccc2cccnc12,6.9,5.6
O=C(Cc1csc(-c2cnccn2)n1)N1CCN(CCO)CC1,2.0,-9.1
COc1ccc(C=C2C(=O)NC(=S)NC2=O)c(OC)c1,20.3&-14.2,14.3&-25.6
Cc1sc2ncnc(N(C)C3CCN(C)CC3C)c2c1C (stereo not given),6.2,5.2
C=C(C)CN(CC)C1CCC(CC)CC1 (stereo not given),-12.1,-14.8
C1=Cc2ccccc2C(N2CC2)c2ccccc21,11.4,12.2
CCOC(=O)C1C(=N)Oc2cc(C)n(C)c(=O)c2C12C(=O)N(CC)c1ccccc12 (stereo not given),1.9,-3.3

Continued.
canonical_smiles,NPYLR7 agonist,NPYLR7 agonist max-min
Cc1cc2c(cc1O)C(C)(O)C1OC1C2C(C)C (stereo not given),-6.0,-14.1
NC(=O)c1ccc(NC(=O)c2cccn(Cc3ccccc3F)c2=O)cc1,-1.6,-4.4
C[C@H](N)CN1CCc2ccc(Br)cc21,-1.0,-2.4
CC1CNCCN1c1nccn2cnnc12 (stereo not given),-3.3,-3.7
CC(C)(C)c1nn(-c2ccccc2Cl)c2c1C(c1ccc(F)cc1)SCC(=O)N2CC(=O)O (stereo not given),-7.9,-14.8
NCCc1ccc(S(=O)(=O)F)cc1,6.8,-12.2
CCn1ccnc1CN1CCCC(C(=O)c2ccc(Cl)cc2C)C1 (stereo not given),0.2,-1.7
CCN1CCN(C(=O)Cc2csc3nc(-c4ccccc4)cn23)CC1,5.8,1.9
Fc1c(F)c(F)c(N2CCNCC2)c(F)c1F,-3.9,-4.4
CC1=C(C(=O)OC(C)C)C2(C(=O)Nc3ccccc32)C(C(=O)OCc2ccccc2)C(=N)O1 (stereo not given),-7.2,-12.1

The listing continues.
canonical_smiles,NPYLR7 agonist,NPYLR7 agonist max-min
CN1CC[C@@H](c2ccc(F)cc2)[C@H](COc2ccc3c(c2)OCO3)C1,-11.0,-16.4
Cc1ccsc1C(=O)C1CCCN(CC#Cc2ccccc2)C1 (stereo not given),2.3,0.5
CCC1CCC(N2CC(C)OC(C)C2)CC1 (stereo not given),-11.7,-16.7
CN1CC(=O)N(Cc2ccc(Cn3nc(C(=O)NCC4CCCO4)c4ccccc43)cc2)c2ccccc2C1=O (stereo not given),-3.5,-9.3
Cc1cc(NC(=O)c2cccn(Cc3cccc(C(F)(F)F)c3)c2=O)no1,16.0,5.9
Cc1ccoc1C(=O)N1[C@H]2CCNC[C@@H]1CC2,1.8,-0.9
O=C(NCCc1cnc2ccccn12)C1CC2(CCNCC2)CN1 (stereo not given),32.6,18.9
C=CCNC(=O)N1[C@@H]2C(=O)Nc3ccccc3[C@@H]2[C@@H](C(=O)OCC)[C@H]1c1ccccc1,0.8,5.5
Cc1ccccc1OCC(=O)N1CCN(Cc2cccc(-c3noc(-c4cccs4)n3)c2)CC1,4.6,-0.5
Cc1cccc(-n2nc(C(C)(C)C)c3c2N(CC(=O)NC2CC2)C(=O)CSC3c2ccc3c(c2)OCO3)c1 (stereo not given),10.9,22.9

Reprinted from the part before: 3 compounds, followed by the next part.
canonical_smiles,NPYLR7 agonist,NPYLR7 agonist max-min
C=CCNC(=O)N1[C@@H]2C(=O)Nc3ccccc3[C@@H]2[C@@H](C(=O)OCC)[C@H]1c1ccccc1,0.8,5.5
Cc1ccccc1OCC(=O)N1CCN(Cc2cccc(-c3noc(-c4cccs4)n3)c2)CC1,4.6,-0.5
Cc1cccc(-n2nc(C(C)(C)C)c3c2N(CC(=O)NC2CC2)C(=O)CSC3c2ccc3c(c2)OCO3)c1 (stereo not given),10.9,22.9
O=C(COc1cccnc1)N1CCCC2(CCNC2)C1 (stereo not given),7.2,3.7
CCc1ccc(CN2CCN3C(=O)CNC(=O)C3C2)nc1 (stereo not given),10.3,6.0
COc1ccccc1[C@@H]1CN(C(=O)CCn2cncn2)[C@@H]2C3CCN(CC3)[C@@H]21,1.6,0.0
CCCc1cc(C(=O)N2CCN(C)C3(CCN(C)CC3)C2)no1,1.3,31.2
CN1CC(=O)N(Cc2ccc(Cn3nc(C(=O)NC4CCC4)c4ccccc43)cc2)c2ccccc2C1=O,-4.1,-8.5
CCCNC1(C(F)(F)F)N=CNc2ccnc(C)c21 (stereo not given),-3.5,-6.5
C[C@@H]1C[C@@H](O)[C@@]2(O)[C@]13CC(=O)OC[C@]2(C)[C@@](C)(O)C(=O)C3,4.0,2.1
CC(=O)OC[C@]12C[C@H](OC(=O)CC(C)C)C(C)=C[C@H]1O[C@H]1[C@H](O)[C@@H](OC(C)=O)[C@@]2(C)C12CO2 (stereo not given in full),2.3,2.9
CC(=O)c1cccc(NC(=O)N2CCN(CCOC(c3ccccc3)c3cccc(C(F)(F)F)c3)CC2)c1 (stereo not given),0.5,11.1
OCC1(CO)COC(c2cccnc2)N1 (stereo not given),17.0,15.5

Quoted at random: 2 records from the list, in no set order.
canonical_smiles,NPYLR7 agonist,NPYLR7 agonist max-min
CN1CC(=O)N(Cc2ccc(Cn3nc(C(=O)NC4CCC4)c4ccccc43)cc2)c2ccccc2C1=O,-4.1,-8.5
CCc1ccc(CN2CCN3C(=O)CNC(=O)C3C2)nc1 (stereo not given),10.3,6.0

Continued.
canonical_smiles,NPYLR7 agonist,NPYLR7 agonist max-min
Cn1ccc(CC(=O)N2CCCC(N3CCN(Cc4ccc5c(c4)OCO5)CC3)C2)c1 (stereo not given),18.2&-0.7,9.2&-2.1
Cc1cc(C(=O)OC(C)C(=O)NC(C)C)c(C)n1C(C)C (stereo not given),1.9,-1.4
Cc1nc(C)c2c(n1)OC(CN1CCC3(CC1)C(=O)Nc1ccccc13)C2 (stereo not given),0.9,-0.3
CC(C)CNC1CCC(O)CC1 (stereo not given),1.4,1.2
CC(Cn1cncn1)NCc1noc(-c2ccco2)n1 (stereo not given),17.6,11.9
CC(C)(C)OC(=O)N1C2CCCC(=O)C1CC2 (stereo not given),-1.0,-6.3
O=C(O)COCC(=O)N1C[C@@H]2C[C@H](C1)c1c(-c3ccccc3)ccc(=O)n1C2,-8.9,-17.6
CCCNC(=O)c1nn(Cc2ccc(C(C)(C)C)cc2)c2ccccc12,6.1,8.2
CC(=O)O[C@@H]1CC[C@]2(C)C3CC[C@]4(C)C(=O)CCC4C3CC[C@H]2C1 (stereo not given in full),-7.5,-14.8
CN1C[C@H](CO)C=C2c3cccc4[nH]cc(c34)C[C@H]21,1.0,-2.9
Nc1ncccc1CN1CCCC(C(=O)c2cccc3ccccc23)C1 (stereo not given),-5.5,-0.6
